Source: PubChem BioAssay
Menin MLL FP FL – inhibitors of human menin-MLL interaction, wild-type MLL peptide; 290,000 tested, under 10 active; FP activity change, % at 61.4 µM; AID 1766; Fluorescence polarization, fluorescein-MLL peptide displacement from menin; inconclusive = falling polarisation curve, or a change in total fluorescence; inactive = total fluorescence flat and polarisation flat or rising; no compound was filed as active; the % refers to the polarisation; negative = inhibition;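 also: % of control where 0% means no effect; inhibitors lower the polarisation; unlabelled MLL peptide was the positive control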
gsp agonist – agonists of gsp mutant (McCune-Albright syndrome). Potency, µM (series often up to 76.9 µM), inactives show at the highest dose activation (cAMP increase), usual class: activators. AID 624287. gsp mutant cells, cAMP HTRF, 30 min; control for the full effect not named in the record. actives 0.13% (n = 340,000); active = well fitted activation curve with a large enough effect; inconclusive = small, poorly fitted or top-dose-only effect, or another doubt; inactive = no such curve, though single readings can be large or run the other way; cell line not stated here;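 also: phosphodiesterase inhibitor Ro 20-1724 added with compounds to block cAMP breakdown; potency is read from the fitted curve at half-maximal effect; nearly all actives have a fitted effect of over 60% in size; about a fifth of the inactives were tested at one dose only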
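Cells stably selected in G418 were plated at 2000/well, grown 16-24 hr, then given compounds in DMSO with the PDE inhibitor […] (300 uM solution added) for 30 min at 37C; cAMP was read by HTRF.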
gsp antagonist – gsp mutant antagonism | gsp-mutant cells, cAMP HTRF, 30 min; control for the full effect not named in the record | actives 0.4% (n = 340,000) | AID 624288 | Potency, µM (series often up to 76.9 µM), for inactives: at the highest dose activity change, negative = inhibition, actives largely listed as inhibitors; active = falling curve of any shape with a large fitted effect; inconclusive = falling curve, mostly with a smaller effect; inactive = flat or rising curve; cell line not stated here;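 also: intracellular cAMP measured with PDE inhibitor Ro 20-1724 present during compound exposure; potency is read from the fitted curve at half-maximal effect; % is scaled to controls: 0 for no effect and ±100 for the full control effect; nearly all actives have a fitted effect of over 65% in size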
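G418-selected cells were plated in DMEM/10% FBS for 16-24 h at 37C, then treated with compounds plus the PDE inhibitor […] (300 uM solution added) for 30 min at 37C. Intracellular cAMP was measured by HTRF after 30 min lysis at room temperature.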
ClpP mod – qHTS Assay for Activators of ClpP; purified B. subtilis ClpP, FRET peptide cleavage, 20 min; ATP-dependent Clp protease proteolytic subunit (Bacillus subtilis (strain 168)), P80244; actives 1.9% (n = 340,000); Potency, µM (doses to about 57.5 µM), without a hit: at the highest dose activity change, negative = active; active = well fitted falling curve with a large enough effect; inconclusive = small, poorly fitted or top-dose-only effect; inactive = no such curve, though single readings can be large or run the other way; also: potency is read from the fitted curve at half-maximal effect; the source files actives as falling curves though it sought activators and does not explain the sign; nearly all actives have a fitted effect of over 65% in size; many hits overshoot -100%
Target sequence (P80244 whole entry, looked up): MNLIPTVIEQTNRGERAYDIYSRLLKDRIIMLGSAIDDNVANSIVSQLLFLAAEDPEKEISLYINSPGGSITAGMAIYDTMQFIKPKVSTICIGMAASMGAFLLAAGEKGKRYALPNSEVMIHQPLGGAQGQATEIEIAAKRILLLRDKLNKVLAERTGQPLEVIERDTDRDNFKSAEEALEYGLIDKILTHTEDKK
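Purified B. subtilis ClpP, 10 microg/mL final in Tris/HCl pH8 with KCl, BSA, glycerol and Tween-20, cleaved an Abz/nitrotyrosine-quenched decapeptide. Fluorescence (ex 320, em 430) was read at 0 and 20 min at room temperature. Delta was normalized to 5.8 microM ADEP and DMSO/no-enzyme controls.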
Sfp inh – Sfp phosphopantetheinyl transferase inhibition; Biochemical Sfp PPTase activity, qHTS; Potency, µM, inactives show max response, negative = inhibition, actives largely listed as inhibitors; actives 3.5% (n = 310,000); AID 1490; active = well fitted inhibition curve with a large enough effect; inconclusive = small, poorly fitted or top-dose-only effect, or another doubt; inactive = no such curve, though single readings can be large or run the other way;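 also: the enzyme is Sfp with the accession as filed and its product quenches rhodamine fluorescence; potency is read from the fitted curve at half-maximal effect; 0% = enzyme reaction without inhibitor and -100% = no enzyme wells; top concentration of the series not given in the record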
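Step 1, compound plus 15 nM Sfp-PPTase, 15 min, room temperature. Step 2, add rhodamine-CoA (5 uM) and BHQ-2-YbbR (12.5 uM). Step 3, read 525/598 nm fluorescence at 0 and 30 min.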
TRPV1 potentiator – potentiators of human vanilloid receptor 1 (TRPV1). TRPV1-expressing cells, Fluo-8 calcium influx, capsaicin EC20 potentiation; host cell line not named in the record; control for the full effect not named in the record. potentiation, % at 8.33 µM. actives 0.02% (n = 320,000); active means potentiation above 80%; inconclusive means 30% to 80%; inactive means below 30%; also: 0% is about no effect
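Fluo-8 calcium influx in TRPV1-expressing cells, kinetic read (ex 480/em 520 nm). Compound added and read 3 min for agonist activity, followed by capsaicin at EC20 final and 2 min further read for enhancement.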
D2 potentiator – positive allosteric modulators of human D2 dopamine receptor. P14416. DiscoveRx D2 beta-arrestin cells, luminescence, 90 min; 100% = 57 uM dopamine signal. potentiation, % (no concentration beside the values). actives 0.23% (n = 360,000). AID 624464; active = potentiation of 50% or more; inconclusive = 30% to 50%; inactive = 30% or less;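 also: compound concentration not given in the record; tested on top of an EC20 dose of dopamine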
Target sequence (P14416 whole entry, looked up): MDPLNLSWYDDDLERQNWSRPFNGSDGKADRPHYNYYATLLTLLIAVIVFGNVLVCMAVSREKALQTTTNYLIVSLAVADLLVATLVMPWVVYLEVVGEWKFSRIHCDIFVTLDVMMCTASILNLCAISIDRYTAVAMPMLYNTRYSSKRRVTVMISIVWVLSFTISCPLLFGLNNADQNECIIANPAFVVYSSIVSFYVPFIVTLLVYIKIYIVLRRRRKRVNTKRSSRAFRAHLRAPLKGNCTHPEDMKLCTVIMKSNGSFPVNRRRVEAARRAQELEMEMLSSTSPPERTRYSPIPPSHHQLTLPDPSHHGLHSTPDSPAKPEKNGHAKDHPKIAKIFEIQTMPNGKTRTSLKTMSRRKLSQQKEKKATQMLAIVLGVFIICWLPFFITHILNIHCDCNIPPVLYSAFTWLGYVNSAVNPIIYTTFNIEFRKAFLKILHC
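PathHunter D2 cells, attached overnight at 37 deg C, received compound in DMSO plus dopamine at EC20 (50 nM final) for 90 min at 37 deg C. Beta-arrestin recruitment was read as luminescence after 1 h with detection reagent at ambient temperature.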
* hit, by the source's call; u = inconclusive; x = not tested or not shown; [ ] = dose if it differs, or a comment.

SMILES	Menin MLL FP FL	gsp agonist	gsp antagonist	ClpP mod	Sfp inh	TRPV1 potentiator	D2 potentiator
CCC(=O)Nc1ccc(N2CCOCC2)c(S(=O)(=O)Nc2ccc(Cl)cc2)c1	x	-49%[inhibitor]	-12%	0.1%	x	-8	-4
Cc1cc(OCC(=O)Nc2nccs2)c2c(C)cc(=O)oc2c1	-4.2	u	2%	u	6%	9	-10
O=C1N/C(=N\N=C\c2ccco2)SC1Cc1ccc(F)cc1 (stereo unspecified)	5.5	3%[15.4 µM]	-4%	x	2%	-6	-5
CN(C)C(=O)CN1CCN(Cc2cn(C)nc2-c2ccc3c(c2)OCCO3)CC1	1.5	16%	0%	x	19%	18	-4
CN(C)C(=O)c1ccc(NS(=O)(=O)c2ccc3c(c2)OCCO3)cc1	-0.5	2%	0%	-2.7%	2%	2	8
N#Cc1ccc(CN2CCN(C(=O)CNC(=O)Cc3ccccc3)CC2)cc1	x	29%	4%	-4.4%	x	1	-6
COc1ccc(-c2cc(=O)oc3c(C)c(O)c(CN(C)C)cc23)cc1	u	u	9%	-6.4%	-7%	u	-10
CCn1nc(C)c(CN2CCCC(C(=O)c3cccc(OC(C)C)c3)C2)c1C (stereo unspecified)	1.4	1%	11%	-9.2%	15%	6	-20
Cc1ccc(CCn2c3c(c4ccccc42)CN(C)CC3)cn1	-0.6	5%	-4%	-23%	-7%	-7	-28
COc1ccc(S(=O)(=O)Nc2cccc3c2O[C@H](CN(C)S(=O)(=O)c2ccccc2)[C@@H](C)CN([C@H](C)CO)C3=O)cc1	x	x	-9%	0.8%	x	x	-9
Clc1ccc2c(N3CCCC3)ccnc2c1	2.1	15%	2%	-2.9%	12%	-3	-6
O=C(CSc1nnc(-c2ccc(F)cc2)n1-c1ccccc1)NCCN1C(=O)CSC1=O	-0.5	30%	5%	2.2%	-4%	-11	-16
CCCCCC(=O)Nc1nc(C)c(-c2csc(Nc3cc(OC)ccc3OC)n2)s1	-0.1	x	3%	-30%	9%	4	-15
CC(=O)NC(=S)Nc1ccc(NC(=O)COc2ccc(C(C)C)cc2)cc1	-0.1	1%[15.4 µM]	-6%	x	13%	1	-11
CCOC(=O)C1CCN(C(=O)CCn2c(=O)[nH]c3ccccc3c2=O)CC1	2.8	0%	4%	u	8%	-10	-2
OCCNc1nc(-c2ccccc2)nc2ccccc12	-0.8	8%[15.4 µM]	-10%	x	26%	-16	-1
CCN1CCN(CCCN(Cc2ccco2)C(=S)Nc2ccc(Cl)cc2)CC1	0.0	-2%[15.4 µM]	6%	x	10%	-4	-8
C=CCn1c(=O)c(C(=O)NCCc2ccc(Cl)cc2)c(O)c2cc(OC)c(OC)cc21	0.9	-3%	1%	-17%	10%	14	5
COc1ccc(NC(=O)CN(C)C(=O)c2ccccc2Sc2ncnc3sc(C)c(C)c23)cc1	x	4%	-16%	0.2%	x	0	-27
O=C(c1ccc(Cl)c(Cl)c1)c1cnc(Nc2ccccc2)s1	1.9	13%	5%	-0.9%	18%	12	13
COc1cc(Nc2ccc(S(N)(=O)=O)cc2)c([N+](=O)[O-])nc1[N+](=O)[O-]	-1.5	-19%	-13%	-1.4%	16%	-20	17
O=C(CCc1ccccc1)NC1(Cc2ccccc2)CCN(CCc2cccs2)C1=O (stereo unspecified)	x	x	-9%	-3.1%	x	-15	-7
C/C(Cl)=C\Cn1c(N2CCCC2)nc2c1c(=O)n(C)c(=O)n2C	3.1	10%[15.4 µM]	-13%	-1.9%	18%	0	-3
NC(=S)Nc1ccc(S(=O)(=O)c2ccc(NC(N)=S)cc2)cc1	1.1	9%[15.4 µM]	20%	0.8%	3%	13	-9
CCn1c(CCCNC(=O)c2ccco2)nc2ccccc21	0.7	8%[15.4 µM]	8%	x	9%	1	-11
COCCn1c(-c2ccc(NC(C)=O)cc2)nc2c1c(=O)[nH]c(=O)n2CC(C)C	-2.1	2%[15.4 µM]	-14%	x	2%	14	-3
O=C(CCC(=O)c1cccs1)NCCc1ccc(F)cc1	x	-2%	11%	-0.3%	x	-20	0
COc1ccc(N(CC(=O)NC2CC2)S(=O)(=O)c2ccccc2)cc1	-7.2	37%[15.4 µM]	-8%	0.0%	10%	3	-2
CC(=O)Nc1sc(NC(=O)c2ccc([N+](=O)[O-])cc2)nc1-c1cccs1	0.6	-19%	0%	0.8%	-7%	3	4
CCOC(=O)c1c(NC(=O)CC2Nc3cc(C)c(C)cc3NC2=O)sc(C)c1C (stereo unspecified)	u	0%	10%	-1.9%	-7%	6	15
CCOP(=O)(O)c1ccccc1OCCOCCOc1ccccc1P(=O)(O)OCC	-0.1	u	8%	0.7%	17%	2	-12
Cc1ccc(C)c(N2N=C(C(=O)Nc3ccccc3N3CCOCC3)CCC2=O)c1	x	-7%	-19%	-1.2%	x	-1	-8
Cc1ccc(OCc2cc(C(=O)N3CCN(C4CCCCC4)CC3)no2)cc1C	1.6	-20%	-2%	1.2%	-3%	-10	-14
Cc1ccc(N2CCN(S(=O)(=O)c3ccc(C)cc3)CC2)cc1	-1.2	-3%[15.4 µM]	10%	0.4%	-7%	10	-4
CC(C)C[C@H](NC(=O)c1nc[nH]c1C(=O)NC(c1ccccc1)c1ccccc1)C(=O)OCc1ccccc1	2.9	u	-5%	-2.4%	26%	23	-7
Cc1c(NC(=O)/C(C#N)=C/c2c(N3CCCCC3)nc3ccccn3c2=O)c(=O)n(-c2ccccc2)n1C	1.0	-7%	9%	-3.3%	14%	-5	4
Cc1cccc(C)c1NC(=O)C1(N2CCN(C(=O)c3ccco3)CC2)CCCCC1	1.8	-30%	-2%	-0.1%	-8%	-3	-11
CCc1nn(-c2cc(Oc3cccc4ccccc34)nc(-c3ccccc3)n2)c(N)c1C#N	4.5	-22%	2%	-1.1%	4%	-12	-1
COc1ccc2sc(-c3ccccc3OC)c(-c3ccc(OCCN4CCCC4)cc3)c2c1	x	x	5%	-7.6%	x	x	-33
Cc1ccc(C(=O)CSc2ncnc3ccccc23)o1	2.1	u	-1%	x	u	6	-8
O=C(COc1ccccc1)Nc1ccc(-c2ccc(N3CCOCC3)nn2)cc1	x	3%[15.4 µM]	-17%	16µM*	x	9	-1
CC12CCC(=O)N1C(C(=O)N1CCN(S(=O)(=O)c3ccccc3F)CC1)CS2 (stereo unspecified)	x	-6%[15.4 µM]	8%	x	x	-9	-2
COc1cc(Cl)c(C)cc1NC(=O)CSc1nnc(-c2cccnc2)n1Cc1ccco1	8.6	-36%	-17%	-0.3%	-18%	6	-13
COCC(=O)N/N=C\c1ccc(OC/C=C/c2ccccc2)c(OC)c1	3.9	-3%[15.4 µM]	-3%	u	-1%	u	-25
O=C(CCC1COc2ccccc2O1)Nc1ccccn1 (stereo unspecified)	2.9	7%	-7%	-0.5%	-4%	-20	5
O=C(CSc1ccccn1)Nc1ccc2c(c1)oc1ccccc12	0.8	6%	-16%	1.6%	-5%	-8	-15
CCOC(=O)c1ccc(-n2c(CCC(=O)O)ccc2-c2cccs2)cc1	5.4	-20%[15.4 µM]	x	x	25µM*	-7	-18
Cn1c(=O)c2c(ncn2CCCC(=N)N2CCOCC2)n(C)c1=O	0.4	45%[15.4 µM]	22%	-4.3%	16%	-17	-3
COc1ccc(CCN2C(=O)c3cccnc3C2=O)cc1OC	2.4	-4%	15%	-0.5%	30%	-2	4
Cc1cc(S(=O)(=O)NCC(C)C)ccc1OCC(=O)NC1CC1	x	-4%[15.4 µM]	0%	2.4%	19%	1	-5
O=C(Nc1ccccc1)Nc1cccn(Cc2c(F)cccc2Cl)c1=O	-0.4	-4%	u	-27%	7%	9	-12
COc1ccc2nc3ccccc3nc2c1	u	x	-5%	-6.8%	u	28	-4
COc1ccc(S(=O)(=O)NCC2CCCN(Cc3cn(C)nc3C)C2)cc1 (stereo unspecified)	0.2	23%	12%	-0.8%	4%	17	-7
O=C(c1cccs1)N1CCN(C2CCCCC2)CC1	-0.5	-36%[inhibitor]	0%	1.5%	-1%	-5	4
CC(C)CNC(=S)N(CCN(C)C)Cc1cc2cc3c(cc2[nH]c1=O)OCO3	0.2	-349%[inhibitor]	3%	x	8%	-27	-10
CCC(C)NCCCOc1ccc([N+](=O)[O-])cc1 (stereo unspecified)	0.2	-10%	12%	0.9%	-19%	13	-9
COCCOC(=O)c1c(NC(=O)CN(C)c2ccccc2)sc(C(N)=O)c1C	1.4	-8%[15.4 µM]	x	x	14%	-4	-3
COc1ccc(N2CCN(CC(=O)Nc3nnc(-c4ccccc4)s3)CC2)cc1	0.6	26%	6%	-13%	-1%	-10	-8
Cc1cc(C)c(NC(=O)OCCN2CCOCC2)c(C)c1	-1.3	-3%	4%	0.0%	1%	7	-5
CCCCCCCC[n+]1c(C)n(-c2ccccc2)c2ccc(NC(C)=O)cc21	0.5	3%[15.4 µM]	10%	x	-12%	-5	-10
(further entries)
SMILES	Menin MLL FP FL	gsp agonist	gsp antagonist	ClpP mod	Sfp inh	TRPV1 potentiator	D2 potentiator
Cc1ccc(OCC(=O)NNC(=O)Cn2c(=O)cnc3ccccc32)cc1	x	9%[15.4 µM]	10%	x	x	-5	3
COc1ccc(NC(=O)c2cc(OC)c(OC)c(OC)c2)cc1S(=O)(=O)N1CCCCC1	-0.8	-6%[15.4 µM]	0%	x	7%	-3	-6
Nn1c(COc2ccccc2F)nnc1SCC(=O)NC1CCS(=O)(=O)C1 (stereo unspecified)	x	10%	8%	1.2%	x	3	12
Cc1c(C(=O)NNC(=O)c2csc(N3CCOCC3)n2)oc2ccccc12	x	1%	-2%	-4.0%	x	5	-1
CCN(CC)Cc1nc2c(c(=O)[nH]1)C1(CCCCC1)Cc1ccccc1-2	8.2	-6%	8%	0.1%	6%	-10	-15
C/C(=N\N1C(=O)c2ccccc2C1=O)c1cccc([N+](=O)[O-])c1	2.7	14%	12%	-0.8%	24%	10	-15
COC(=O)c1c(NC(C)=O)sc2c1CCCC2	5.0	13%	-12%[15.4 µM]	7.8%	-13%	4	-25
O=C(NNc1ccc(F)cc1F)C1CCC1	0.4	-12%[15.4 µM]	13%	x	19%	10	-2
